Cruzain Triton: cruzain (T. cruzi) inhibition with detergent; Potency, µM, for the others: max response, negative = inhibition, most hits filed as inhibitors; hit rate 0.43% among 200,000; AID 1478; P25779; purified cruzain, Z-FR-AMC fluorescence, 0.01% Triton; active means well fitted curve in the direction sought with a large enough effect; inconclusive means small, poorly fitted or top-dose-only effect, or another doubt; inactive means no such curve, though single readings can be large; an effect the other way counts as inactive or inconclusive;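 further: plate controls were neutral wells for no effect and buffer without enzyme for full effect; nearly all actives have a fitted effect of over 40% in size; top concentration of the series not given in the record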
Target sequence (P25779 123-467 limits assumed): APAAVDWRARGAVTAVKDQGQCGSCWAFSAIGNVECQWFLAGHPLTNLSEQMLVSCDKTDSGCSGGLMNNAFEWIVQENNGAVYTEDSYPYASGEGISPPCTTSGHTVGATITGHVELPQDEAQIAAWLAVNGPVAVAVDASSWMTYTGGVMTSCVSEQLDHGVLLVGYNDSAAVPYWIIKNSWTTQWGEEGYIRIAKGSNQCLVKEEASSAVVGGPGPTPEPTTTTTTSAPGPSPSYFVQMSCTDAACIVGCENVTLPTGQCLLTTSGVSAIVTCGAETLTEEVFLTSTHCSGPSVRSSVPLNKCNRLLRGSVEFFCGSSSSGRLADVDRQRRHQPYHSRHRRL
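Read-out: AMC fluorescence (360 nm excitation, 450 nm emission), four reads over 2 min, first-to-third difference used. Conditions: cruzain 1.5 nM, Z-FR-AMC 2 uM, pH 5.5 acetate, 5 mM DTT, 0.01% Triton X-100.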
NS1 function inh: blocks influenza NS1 protein function; AID 2326; S. cerevisiae slowed by influenza A NS1, growth recovery by OD600; hit rate 0.4% among 270,000; Potency, µM (highest dose often 46.1 µM), without a hit: at the top dose activity, positive = more growth; further: actives are rising curves; nearly all actives have a fitted effect of over 50% in size
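Recovery from NS1-induced slow growth read by OD600 in budding yeast switched to galactose assay medium (pH 6.0, -URA) at 1:100 dilution. Compound 23 nl per well; the matching strain lacking NS1 serves as control.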
LASV entry inh: blocks Lassa virus binding to or entry into cells. Potency, µM (highest dose often 37.9 µM), for inactives: at the highest dose activity change, negative = inhibition, most hits filed as inhibitors. Lassa virus pseudotype entry inhibition, cell reporter; control for the full effect not named in the record. hit rate 1.2% among 300,000; active means well fitted inhibition curve with a large enough effect; inconclusive means small, poorly fitted or top-dose-only effect, or effect the other way; inactive means flat fitted curve, though single readings scatter; tested in HEK293 cells; further: on the % scale 0 is the no-effect control and ±100 the full control effect; nearly all actives have a fitted effect of over 50% in size; luciferase read-out
2A StopGo: FMDV 2A StopGo reporter, luciferase signal | human cells with a luciferase reporter of 2A StopGo recoding; control for the full effect not named in the record | Potency, µM (top dose mostly 57.9 µM), for inactives: top-dose signal change, negative = less light | hit rate 1.2% among 410,000 | AID 1159524; active = well fitted falling curve with a large enough effect; inconclusive = small, poorly fitted or top-dose-only effect; inactive = no such curve, though single readings can be large or run the other way; tested in HEK293T cells; further: on the % scale 0 is the no-effect control and ±100 the full control effect; nearly all actives have a fitted effect of over 45% in size; luciferase light after 4 h
Cruzain noTriton: blocks cruzain activity in detergent-free assay. P25779. Potency, µM, without a hit: max response, negative = inhibition, actives largely listed as inhibitors. purified cruzain, Z-FR-AMC fluorescence, no detergent. hit rate 2.3% among 200,000; active means well fitted curve in the direction sought with a large enough effect; inconclusive means small, poorly fitted or top-dose-only effect, or another doubt; inactive means no such curve, though single readings can be large; an effect the other way counts as inactive or inconclusive;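 further: plate controls were enzyme without inhibitor for no effect and buffer without enzyme for full effect; nearly all actives have a fitted effect of over 40% in size; top concentration of the series not given in the record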
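Purified cruzain at 1.5 nM, pre-incubated 15 min with compound at room temperature in 100 mM sodium acetate pH 5.5, 5 mM DTT, 0.00005% Triton X-100. Reaction started with 2 uM Z-FR-AMC; AMC fluorescence increase over 60 s gives rate.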
RE007 growth inh: less growth of the S. pombe RE007 Vpr strain | S. pombe RE007 Vpr strain, BacTiter-Glo ATP luminescence, 24 h; control for the full effect not named in the record | Potency, µM (doses to about 92.2 µM), without a hit: at the highest dose activity change, negative = less growth | hit rate 0.21% among 360,000 | AID 651644; active = well fitted falling curve with a large enough effect; inconclusive = small, poorly fitted or top-dose-only effect; inactive = no such curve, though single readings can be large or run the other way;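 further: on the % scale 0 is the no-effect control and ±100 the full control effect; nearly all actives have a fitted effect of over 50% in size; the assay follows cell death caused by Vpr and the record does not say whether a fall means rescue or toxicity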
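Fission yeast strain RE007, carrying one chromosomally integrated HIV-1 vpr copy, was seeded at OD 0.01 in PMG+AL medium with 23 nL pinned compound. After 24 h at 30 °C and 99% humidity, viability was read by BacTiter-Glo luminescence.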
MARV entry inh: Marburg virus entry inhibition | Marburg virus pseudotyped entry inhibition, cell reporter; control for the full effect not named in the record; about a third of the inactives were read at about 46 µM | Potency, µM (top dose mostly 37.8 µM), for inactives: at the top dose activity change, negative = inhibition, usual class: inhibitors | hit rate 1.8% among 300,000; active = well fitted inhibition curve with a large enough effect; inconclusive = small, poorly fitted or top-dose-only effect, or effect the other way; inactive = flat fitted curve, though single readings scatter; tested in HEK293 cells; about a fifth of its hits are not listed in these tables; further: on the % scale 0 is the no-effect control and ±100 the full control effect; luciferase read-out
SARS PLpro yeast: blocks SARS-CoV papain-like protease in a yeast assay. S. cerevisiae expressing SARS-CoV PLpro, growth rescue; control for the full effect not named in the record. Potency, µM (titrated, usually from 32.9 µM), for the others: at the highest dose activity, positive = growth rescue. hit rate 0.19% among 330,000. AID 485353; further: 0% is about no effect; nearly all actives have a fitted effect of over 55% in size; growth read by luminescence after 48 h
* marks the source's active call; other numbers are inactive results; ? = inconclusive; · = not tested or not shown; & = joins results of further samples; [ ] = another dose, or the depositor's remark. Unless noted, the call rests on the fitted dose curve; in most records, active means well fitted rising curve with a large enough effect; inconclusive means small, poorly fitted or top-dose-only effect; inactive means no such curve, though single readings can be large or run the other way. Potency means the concentration at half of the fitted maximal effect.

SMILES	Cruzain Triton	NS1 function inh	LASV entry inh	2A StopGo	Cruzain noTriton	RE007 growth inh	MARV entry inh	SARS PLpro yeast
CC(C)C(NC(=O)C(Cc1ccccc1)NC(=O)OCc1ccccc1)C(=O)O (stereo not given)	·	-4%	21%	-15%	·	16%	?	18%
CCc1cc2cc(C)cc(C)c2nc1SCC(=O)NNC(=O)c1ccco1	-3.9%	4%	6%	-5%	20%	7%	-2%	0%
CC(=O)c1sc(N/N=C\c2cccc(Br)c2)nc1C	13µM*	-24%	14µM*	-11%	0.2µM*	-18%	?	-11%
O=C(Nc1ccc2c(c1)OCCO2)c1cnccn1	1.7%	2%	-6%	·	-9%	-18%	-19%	-13%
CCCC(=O)Nc1ccc(NC(=O)c2ccccc2OC)cn1	-2.1%	-38%	-22%	31%[activator]	-2%	-1%	?	-2%
CC(C)(C)NC(=O)NC(=O)CN1CCN(c2cccc(Cl)c2)CC1	·	7.9µM*	-4%[46.1 µM]	0%	·	-6%	?	0%
CCCC(C)NC(=O)COC(=O)c1cc(Br)c(Br)s1 (stereo not given)	·	·	3%	-13%	·	20%	-18%[46.1 µM]	1%
O=C(COc1ncnc2ccccc12)N1CCN(S(=O)(=O)c2ccc(Cl)cc2)CC1	2.6%	-18%	-5%	-16%	?	11%	18%	1%
CC(=O)N1c2ccc(S(=O)(=O)N3CCC(C(=O)Nc4cccc(C)c4C)CC3)cc2CC1C (stereo not given)	·	-5%	7%[46.1 µM]	-10%	·	8%	12%[46.1 µM]	5%
O=C(CCn1c(=O)oc2ccccc21)N1CCOCC1	-2.8%	-5%	17%	25%	5%	-2%	?	6%
CC(NC(=O)c1ccc2ccccc2n1)c1ccc(Br)cc1 (stereo not given)	·	-34%	5.6µM*	-6%	·	29%	?	-54%
CSc1cc(C)n(-c2ccccc2C)c(=S)c1C(C)=O	-1.8%	-3%	-3%	-17%	-3%	3%	?	1%
CC(C)SC1=NC(C)(C)C=C(/C=C/c2ccc(Cl)cc2Cl)N1	-16%	-72%	?	?	-23%	-14%	?	2%
O=C(CN1C(=O)C2C3C=CC(C3)C2C1=O)NCCN1CCCc2ccccc21 (stereo not given)	4.4%	?	15%	3%	-2%	-19%	-12%	3%
CCOC(=O)C1(Cc2ccc(Cl)cc2)CCN(Cc2cn(CC)nc2C)CC1	·	-5%	·	?	·	5%	·	0%
C/C=C(\C)C(=O)NCCN1C2=NC[C@H](C)N2C[C@@H]1Cc1ccc(OC)cc1	·	-4%	·	-3%	·	-11%	·	0%
CCCCCC1C/C(=N\O)C=C(C)C1C(=O)OC (stereo not given)	·	9%	?	-25%	·	1%	-11%[46.1 µM]	1%
CC(=O)Nc1ccc(S(=O)(=O)NC(C)c2ccccc2)cc1 (stereo not given)	·	6%	2%	-12%	·	7%	6%	3%
Cc1nc2c(c(C)nn2-c2ccccc2)c(C)c1CCC(=O)NCc1ccccc1	-4.9%	·	-1%[46.1 µM]	-25%	?	·	-9%[46.1 µM]	·
COc1cc(OC)c(NC(=O)NCc2ccc3c(c2)CCN3C(C)=O)cc1Cl	3.4%	·	2%[46.1 µM]	-26%	?	·	·	·
CC1CCCC(NC(=O)CCn2c(=S)oc3ccccc32)C1C (stereo not given)	·	-1%	0%	0%	·	8%	-11%	0%
O=C(NCc1ccccn1)c1cc(-c2ccc(-c3ccccc3)cc2)nc2ccccc12	-12%	10%	·	17%	-9%	8%	0%	-42%
CC(C)(C)C(=O)Cn1c(NCCCO)nc2ccccc21	7.8%	0%	3%	-14%	3%	-3%	5%	3%
Cc1ccc(OC(=O)c2ccc3nc(C)sc3c2)cc1	·	1%	3%	?	·	-3%	-4%[46.1 µM]	0%
CCN(CC)Cc1c(O)ccc2c(=O)c(Oc3ccccc3OC)c(C)oc12	·	6%	·	-26%	·	3%	·	0%
CCOc1ccccc1NC(=O)COc1cccc2c(=O)n(CCOC)ccc12	-2.1%	·	-28%[46.1 µM]	?	1%	·	·	·
O=C(CCC(=O)OCC(=O)c1ccccc1)Nc1cccc2cccnc12	-2.3%	-2%	1%	·	-5%	13%	-9%	4%
O=C(Cc1ccccc1)Oc1ccc(N2C(=O)C3CCCCC3C2=O)cc1 (stereo not given)	2.8%	12%	8%	-19%	13%	-1%	?	9%
CCOC(=O)CNC(=O)COc1coc(CN2CCN(c3ccc(F)cc3)CC2)cc1=O	·	10%	·	-21%	·	-14%	·	-6%
COc1cc(NC(=O)CN2C(=O)NC(C)(c3ccc(OC(F)F)cc3)C2=O)cc(OC)c1OC (stereo not given)	·	-5%	-4%	0%	·	1%	-18%[46.1 µM]	1%
Cc1[nH]nc2c1C(c1cccs1)C(C#N)=C(N)O2 (stereo not given)	·	·	-7%	?	·	-2%	?	4%
COC(=O)CCn1nnc(-c2ccc(C)cc2)n1	3.3%	-8%	0%	49%[activator]	0%	7%	25%	4%
Cc1ccc(NC(=O)C2CCCN(c3ncnc4onc(C)c34)C2)c(Cl)c1 (stereo not given)	-0.3%	·	-11%[46.1 µM]	?	-11%	·	·	·
CN1CCN(CCCNC(=O)c2cnn(-c3ccc(F)cc3)c2-n2cccc2)CC1	-2.1%	·	?	-4%	-11%	·	·	·
Cc1ccc(N(CCC(=O)N2CCOCC2)S(=O)(=O)c2ccccc2)cc1	·	·	11%	12%	·	16%	12%	·
Cc1nc2c3cnn(-c4ccccc4)c3ncn2n1	-0.8%	8%	13%	1%	-19%	-3%	19%	0%
Cc1nn(CC(=O)Nc2ccccn2)c(C)c1Br	-2.5%	1%	?	-3%	-1%	41%	6%	1%
CCOc1cc(/C=N/NC(=O)c2cccc([N+](=O)[O-])c2)ccc1OS(=O)(=O)c1ccccc1	-3.0%	?	?	-16%	?	-11%	?	-5%
O=C(NC(NC(=S)Nc1cc(Cl)ccc1Cl)C(Cl)(Cl)Cl)c1ccco1 (stereo not given)	-6.4%	9%	4%	·	-3%	-17%	-13%	-8%
OCCN=c1cc(-c2ccccc2)oc2ccc(Cl)cc12	-6.0%	-9%	-5%	-21%	-18%	-23%	?	-6%
O=C1NC(=Nc2ccccc2)S/C1=C\c1cccs1	·	-6%	·	62%[activator]	·	-11%	·	0%
O=[N+]([O-])c1cncc([N+](=O)[O-])c1Nc1ccccc1Cl	·	·	-11%[46.1 µM]	-20%	·	-28%	3%[46.1 µM]	-5%
COc1ccc(-c2sc(Nc3ccc(F)c(F)c3F)nc2CCC(=O)NN)cc1	·	24%	?	-9%	·	-5%	?	0%
Cn1c(=O)c(=O)n(C)c2cc(S(=O)(=O)CCC(=O)Nc3c(F)c(F)c(F)c(F)c3F)ccc21	·	8%	·	-8%	·	-1%	·	1%
Cc1ccc(S(=O)(=O)N2CCC(NC(=O)OC(C)C)CC2)cc1	·	·	-26%	-23%	·	-10%	-5%[46.1 µM]	-3%
Cc1ccc(NC(=S)N2CCn3cccc3C2c2cccnc2)cc1 (stereo not given)	-2.5%	2%	10%	-2%	-2%	-1%	-1%	0%
CC1CCN(S(=O)(=O)c2ccc3c(c2)c(=O)c(C(=O)N2CCCCC2)cn3C)CC1	-3.7%	-6%	-14%	12%	-7%	18%	18%&18%	9%
CCN(CC(=O)Nc1ccc(NC(C)=O)cc1)C(=O)c1ccc(=O)n(C)n1	·	·	-1%	-12%	·	-4%	2%	4%
O=C(CSc1ccc2nnc(CCNC(=O)c3ccccc3)n2n1)NCc1ccco1	·	9%	14%	-4%	·	-6%	25%	-1%
CN(C)c1ccc(C(=O)/C=C/c2ccccc2)cc1	·	·	?	9%	·	-18%	?	-7%
COC(=O)c1ccc(N2CCN(C)CC2)c(NC(=O)c2cc3ccccc3o2)c1	4.1%	1%	8%	-2%	-2%	-24%	5%	-3%
COc1ccc(OC)c(CN2CCC(C(=O)N(C)CCc3ccc(OC)c(OC)c3)CC2)c1	·	3%	·	?	·	11%	·	0%
O=C(CN(c1ccccc1F)S(=O)(=O)c1ccccc1)Nc1ccccc1C(=O)N1CCOCC1	·	0%	?	-10%	·	14%	?	2%
CCC(=O)Nc1ccc(-c2nnc(-c3ccccc3)o2)cc1	-11%	-3%	?	41%[activator]	4%	15%	?	2%
COc1cc(/C=C/[N+](=O)[O-])ccc1O	-0.1%	-55%	-20%	?	0%	?	-22%	-79%
COc1ccc(Cl)cc1NC(=O)c1cc2c(=O)n3ccccc3nc2s1	-12%	·	-1%[46.1 µM]	-19%	4%	·	?	·
COC(=O)/C=C/C(=O)Nc1cccnc1	2.8%	-12%	-13%	0%	0%	-2%	-16%	6%
COc1cccc(C2CC(c3cccs3)=NN2S(C)(=O)=O)c1OC (stereo not given)	·	-2%	-1%	7%	·	15%	-30%[46.1 µM]	1%
COc1ccc(Cn2cccc(NC(=O)Nc3cccc(OC)c3)c2=O)cc1	·	-13%	·	?	·	18%	·	-2%
N/C(=N\OC(=O)COc1ccc2ccccc2c1)c1cccnc1	-12%	-9%	20%	-16%	6%	·	?	-21%

(cont.)
SMILES	Cruzain Triton	NS1 function inh	LASV entry inh	2A StopGo	Cruzain noTriton	RE007 growth inh	MARV entry inh	SARS PLpro yeast
Cc1cc(C)c(NC(=O)CSc2nc3ccc(NC(=O)CSc4nnnn4Cc4ccccc4)cc3s2)c(C)c1	·	·	7%	17%	·	12%	6%	·
CCNC(=O)c1c(NC(=O)c2cc(-c3cc(C)cc(C)c3O)n[nH]2)sc2c1CCCC2	·	·	16%	-17%	·	-15%	16%[46.1 µM]	·
CCOc1ccc(OCC)c(NC(=O)CC2Oc3ccccc3NC2=O)c1 (stereo not given)	2.1%	-24%	·	-29%	-15%	3%	·	-5%
O=C(Nc1ccc(Br)cc1)c1ccc2ncsc2c1	·	-12%	?	-43%	·	2%	?	0%
